Assay outcomes: PubChem BioAssay, National Center for Advancing Translational Sciences (NCATS)
RE007 growth inh – less growth of the S. pombe RE007 Vpr strain | S. pombe RE007 Vpr strain, BacTiter-Glo ATP luminescence, 24 h; control for the full effect not named in the record | hit rate 0.21% among 360,000 | Potency, µM (top dose mostly 92.2 µM), without a hit: at the top dose activity change, negative = less growth; active = well fitted falling curve with a large enough effect; inconclusive = small, poorly fitted or top-dose-only effect; inactive = no such curve, though single readings can be large or run the other way;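 also: % is scaled to controls: 0 for no effect and ±100 for the full control effect; nearly all actives have a fitted effect of over 50% in size; the assay follows cell death caused by Vpr and the record does not say whether a fall means rescue or toxicity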
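Fission yeast RE007 carrying one integrated HIV-1 vpr copy, seeded at OD 0.01 in PMG+AL medium with 23 nL pinned compound. Grown 24 h at 30 degrees; viability read by BacTiter-Glo luminescence after 5 min.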
Lassa entry inh – inhibitors of Lassa virus binding or cell entry; Potency, µM (titrated, usually from 37.9 µM), for the others: at the top dose activity change, negative = inhibition, most hits filed as inhibitors; hit rate 1.2% among 300,000; Lassa virus pseudotype entry inhibition, cell reporter; control for the full effect not named in the record; active means well fitted inhibition curve with a large enough effect; inconclusive means small, poorly fitted or top-dose-only effect, or effect the other way; inactive means flat fitted curve, though single readings scatter; tested in HEK293 cells; also: % is scaled to controls: 0 for no effect and ±100 for the full control effect; nearly all actives have a fitted effect of over 50% in size; luciferase read-out
StopGo reporter – lowers the luciferase signal of an FMDV 2A StopGo reporter | AID 1159524 | Potency, µM (top dose mostly 57.9 µM), inactives show at the highest dose signal change, negative = less light | hit rate 1.2% among 410,000 | human cells with a luciferase reporter of 2A StopGo recoding; control for the full effect not named in the record; active = well fitted falling curve with a large enough effect; inconclusive = small, poorly fitted or top-dose-only effect; inactive = no such curve, though single readings can be large or run the other way; tested in HEK293T cells; also: % is scaled to controls: 0 for no effect and ±100 for the full control effect; nearly all actives have a fitted effect of over 45% in size; luciferase light after 4 h
Marburg entry inh – inhibitors of Marburg virus binding or cell entry; hit rate 1.8% among 300,000; Marburg virus pseudotyped entry inhibition, cell reporter; control for the full effect not named in the record; about a third of the inactives were read at about 46 µM; Potency, µM (top dose mostly 37.8 µM), inactives show top-dose activity change, negative = inhibition, usual class: inhibitors; active = well fitted inhibition curve with a large enough effect; inconclusive = small, poorly fitted or top-dose-only effect, or effect the other way; inactive = flat fitted curve, though single readings scatter; tested in HEK293 cells; about a fifth of its hits are not listed in these tables; also: % is scaled to controls: 0 for no effect and ±100 for the full control effect; luciferase read-out
Cruzain Triton – inhibitors of Trypanosoma cruzi cruzain with detergent; P25779; purified cruzain, Z-FR-AMC fluorescence, 0.01% Triton; Potency, µM, without a hit: max response, negative = inhibition, actives largely listed as inhibitors; hit rate 0.43% among 200,000; active = well fitted curve in the direction sought with a large enough effect; inconclusive = small, poorly fitted or top-dose-only effect, or another doubt; inactive = no such curve, though single readings can be large; an effect the other way counts as inactive or inconclusive;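 also: plate controls were neutral wells for no effect and buffer without enzyme for full effect; nearly all actives have a fitted effect of over 40% in size; top concentration of the series not given in the record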
Target sequence (P25779 123-467 limits assumed): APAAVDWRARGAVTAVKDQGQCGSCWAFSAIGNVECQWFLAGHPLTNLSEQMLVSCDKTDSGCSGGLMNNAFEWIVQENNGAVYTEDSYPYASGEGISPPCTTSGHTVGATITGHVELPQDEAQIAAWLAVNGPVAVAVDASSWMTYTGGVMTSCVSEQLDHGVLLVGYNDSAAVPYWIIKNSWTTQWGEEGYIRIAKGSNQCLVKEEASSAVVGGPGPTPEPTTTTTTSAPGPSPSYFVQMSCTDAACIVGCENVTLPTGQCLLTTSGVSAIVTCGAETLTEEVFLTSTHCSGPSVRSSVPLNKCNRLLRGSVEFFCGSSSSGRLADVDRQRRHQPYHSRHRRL
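Z-FR-AMC hydrolysis (2 uM substrate) by cruzain (1.5 nM) monitored kinetically at ex 360/em 450 nm after 15 min room-temperature compound exposure; 0.01% Triton X-100, pH 5.5, 5 mM DTT.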
NS1 function inh – inhibitors of influenza NS1 protein function | Potency, µM (top dose mostly 46.1 µM), inactives show at the top dose activity, positive = more growth | S. cerevisiae slowed by influenza A NS1, growth recovery by OD600 | hit rate 0.4% among 270,000 | AID 2326; also: actives are rising curves; nearly all actives have a fitted effect of over 50% in size
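Growth recovery, yeast-based: influenza A NS1 expressed in S. cerevisiae causes slow growth, and suppressors are detected by OD600. The parent strain without NS1 is used as positive control.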
Cruzain inh noDet – blocks cruzain activity in detergent-free assay. P25779. purified cruzain, Z-FR-AMC fluorescence, no detergent. Potency, µM, inactives show max response, negative = inhibition, most hits filed as inhibitors. hit rate 2.3% among 200,000. AID 1476; active = well fitted curve in the direction sought with a large enough effect; inconclusive = small, poorly fitted or top-dose-only effect, or another doubt; inactive = no such curve, though single readings can be large; an effect the other way counts as inactive or inconclusive;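 also: plate controls were enzyme without inhibitor for no effect and buffer without enzyme for full effect; nearly all actives have a fitted effect of over 40% in size; top concentration of the series not given in the record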
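Detergent-free condition (0.00005% Triton X-100) in acetate buffer pH 5.5 with DTT. 1.5 nM enzyme and compound were pre-mixed 15 min, then 2 uM Z-FR-AMC substrate added; reaction progress from fluorescence change between first and third reads (60 s).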
SARS PLpro yeast – SARS-CoV PLP inhibition in yeast. S. cerevisiae expressing SARS-CoV PLpro, growth rescue; control for the full effect not named in the record. Potency, µM (highest dose often 32.9 µM), without a hit: at the top dose activity, positive = growth rescue. hit rate 0.19% among 330,000. AID 485353; also: 0% is about no effect; nearly all actives have a fitted effect of over 55% in size; growth read by luminescence after 48 h
Numbers without * were called inactive; ? = inconclusive; / = no result given; & = joins results of further samples; [ ] = dose if it differs, or a comment. Unless noted, calls follow the shape of the dose curve; as a rule, active means well fitted rising curve with a large enough effect; inconclusive means small, poorly fitted or top-dose-only effect; inactive means no such curve, though single readings can be large or run the other way. Potency is read from the fitted curve at half-maximal effect.

SMILES	RE007 growth inh	Lassa entry inh	StopGo reporter	Marburg entry inh	Cruzain Triton	NS1 function inh	Cruzain inh noDet	SARS PLpro yeast
COc1cccc(NC(=S)N2CCCC2c2ccc(OC)c(OC)c2)c1 (stereo not drawn)	0%	14%[46.1 µM]	16%	?	/	/	/	3%
Clc1ccc(-c2cn(-c3ccc(Cl)cc3)c3[n+]2CCCCC3)cc1	-3%	21%	?	?	/	-3%	/	0%
CCC1Oc2ccc(C)cc2N(CC(=O)N(Cc2ccc(C)o2)C2CC(C)(C)NC(C)(C)C2)C1=O (stereo not drawn)	-11%	?	-19%	?	-3.9%	-4%	-12%	-10%
COc1cc(SC)ccc1C(=O)Nc1ccc(C)cc1C	-11%	?	39%[activator]	?	-4.3%	-12%	-6%	11%
O=C(COc1ccccc1F)Nc1ccc(S(=O)(=O)NCc2ccco2)cc1	-7%	?	?	-27%	-5.0%	-8%	-7%	5%
CC(C)c1nnc(NC(=O)c2ccc3ccccc3c2)s1	-3%	?	-14%	?	/	14%	/	2%
Nc1c(Cl)c(Cl)nc(C(=O)N/N=C/c2ccco2)c1Cl	4%	/	9%	/	/	-3%	/	-1%
CCOc1ccccc1CNC(=O)c1c(C)oc2ncnc(N3CCOCC3)c12	/	-3%[46.1 µM]	-12%	/	-1.2%	/	-7%	/
O=[N+]([O-])CC(=Nc1ccc(Cl)cc1)N/N=C\c1oc(O)c2ccccc12	6%	-25%	57%[activator]	-16%	-30%	0%	?	14%
COc1ccc(C(=O)OC(C)C(=O)NC(C)CCc2ccccc2)cc1[N+](=O)[O-] (stereo not drawn)	11%	-7%	10%	-17%[46.1 µM]	/	-9%	/	3%
Cc1ccc(C)c(-n2ccnc2SCC(N)=O)c1	-6%	-1%	4%	5%	/	7%	/	0%
Cc1cc(C(=O)OCC(=O)Nc2c(Cl)cccc2Cl)c(C)o1	-20%	-8%	-16%	-21%	/	/	/	-3%
CC1(C)CC(=O)C(C=NCC2CCNCC2)=C(O)C1	0%	3%	-15%	3%[46.1 µM]	5.0%	3%	-1%	3%
Cc1cc(C)cc(NS(=O)(=O)c2ccc3[nH]cc(C(=O)NCc4ccccc4Cl)c(=O)c3c2)c1	/	?	-26%	/	0.2%	/	?	/
COc1ccc(-n2c(SCC#N)nc3ccccc3c2=O)cc1	-15%	-2%	-2%	-2%	0.9%	-1%	-12%	4%
Cc1csc2nc(CNS(=O)(=O)c3cccnc3)cn12	3%	-11%	/	?	/	-3%	/	/
CN(Cc1c(F)cccc1Cl)C(=O)c1ccc(NC(=O)CC2SC(N3CCCC3)=NC2=O)cc1 (stereo not drawn)	4%	?	58%[activator]	-4%	/	/	/	-4%
CCOc1ccc(N2C(=O)CC(N3CCN(c4ccc([N+](=O)[O-])cc4)CC3)C2=O)cc1 (stereo not drawn)	-4%	/	-25%	/	/	-16%	/	-11%
COc1ccc(NC(NC(=O)c2ccc(OC)cc2)C(Cl)(Cl)Cl)cc1 (stereo not drawn)	17%	?	-27%	?	-5.1%	-2%	-2%	-1%
COc1ccccc1N(CC(=O)NCC1CCCO1)C(=O)Cn1nnc(-c2cccs2)n1 (stereo not drawn)	-20%	-13%	10%	0%[46.1 µM]	/	-1%	/	1%
COc1cc(C(=O)COC(=O)c2ccco2)cc(OC)c1OC	?	2%	-10%	3%	/	/	/	12%
CCOC(=O)c1sc(NC(=O)c2cc(S(=O)(=O)N3CCOCC3)ccc2C)nc1C	-4%	17%	0%	-1%&-1%	-9.8%	-1%	?	1%
O=C(NNC(=O)c1ccccc1Br)c1ccncc1	-4%	/	9%	/	/	-6%	/	2%
COc1cccc(-c2nc(N)nc(SC)c2C#N)c1	4%	12%	19%	4%	/	-3%	/	0%
CN(C)S(=O)(=O)c1cccc(NC(=O)COC(=O)/C=C/c2ccco2)c1	21%	5%	-26%	?	-4.3%	6%	-14%	-12%

Part of the list above, set out differently:
Screens in order – RE007 growth inh, Lassa entry inh, StopGo reporter, Marburg entry inh, Cruzain Triton, NS1 function inh, Cruzain inh noDet, SARS PLpro yeast
- Clc1ccc(-c2cn(-c3ccc(Cl)cc3)c3[n+]2CCCCC3)cc1
    -3%, 21%, ?, ?, /, -3%, /, 0%
- Nc1c(Cl)c(Cl)nc(C(=O)N/N=C/c2ccco2)c1Cl
    4%, /, 9%, /, /, -3%, /, -1%
- CCC1Oc2ccc(C)cc2N(CC(=O)N(Cc2ccc(C)o2)C2CC(C)(C)NC(C)(C)C2)C1=O (stereo not drawn)
    -11%, ?, -19%, ?, -3.9%, -4%, -12%, -10%
- COc1cc(C(=O)COC(=O)c2ccco2)cc(OC)c1OC
    ?, 2%, -10%, 3%, /, /, /, 12%

(next part)
SMILES	RE007 growth inh	Lassa entry inh	StopGo reporter	Marburg entry inh	Cruzain Triton	NS1 function inh	Cruzain inh noDet	SARS PLpro yeast
O=C(c1cc(S(=O)(=O)N2CCCC2)c[nH]1)N1CCN(c2cccc(Cl)c2)CC1	/	3%[46.1 µM]	21%	/	-14%	/	22%	/
COc1ccc(OC)c2c1sc(=NC(=O)c1cccc(N3C(=O)CCC3=O)c1)n2C	4%	/	-2%	6%	-5.0%	17%	?	-1%
CCOc1ccc(C(CC(=O)O)NS(=O)(=O)c2ccc(C)cc2)cc1OC (stereo not drawn)	2%	21%	-4%	-3%	2.1%	6%	4%	4%
COc1ccc(CN(C(=O)c2cccc(OC)c2)C2CCS(=O)(=O)C2)cc1 (stereo not drawn)	-20%	20%[46.1 µM]	-7%	3%[46.1 µM]	/	2%	/	0%
O=C1COc2ccc(S(=O)(=O)N3CCc4ccccc43)cc2N1	15%	/	12%	/	/	-2%	/	2%
COc1ccc(OC)c(N2C(=O)NC(=O)C3(Cc4cc(C)ccc4N(C)C3)C2=O)c1 (stereo not drawn)	-2%	-6%	9%	-9%	3.8%	29%	-5%	1%
CCNc1nc(NCC)n2c(SCC(=O)Nc3cccc(Cl)c3)nnc2n1	2%	?	-21%	-10%	/	/	/	8%
Cc1nnc(NC(=O)c2ccc(S(=O)(=O)N3CC(C)CC(C)C3)cc2)o1 (stereo not drawn)	30%	?	0%	?	/	-21%	/	0%
C/C(Cc1ccccc1)=N\NC(=O)CNC(=O)c1ccccc1O	1%	17%	8%	-10%[46.1 µM]	/	2%	/	0%
Cc1cc(C)n2nc(C(=O)OCC(=O)NNC(=O)c3ccc(Cl)cc3)nc2n1	0%	15%	-15%	-18%	/	/	/	8%
Cc1ccc(-c2cnn(-c3cccc(C(F)(F)F)c3)c2N)cc1	17%	24%	24%	12%	-6.6%	-15%	-6%	-17%
Cc1cccc(C2NC(=O)c3c(sc4c3CCN(C)C4)N2)c1O (stereo not drawn)	/	4%[46.1 µM]	21%	/	-15%	/	-4%	/
Cc1cc(=O)nc2c3ccccc3n(CC(=O)NC(C)c3ccc4c(c3)OCCO4)n12 (stereo not drawn)	4%	22%[46.1 µM]	-20%	-27%[46.1 µM]	/	1%	/	3%
CCC(C)Nc1c2c(nc3c(-c4ccccc4)c(C)nn13)CCC2 (stereo not drawn)	-7%	-15%	?	-16%	-7.4%	-16%	-20%	-5%
Cc1ccc(NC(=O)CSCC(=O)N2CCOCC2)cc1	-11%	1%	-17%	7%	0.8%	13%	-8%	3%
Cc1ccccc1NC(=O)NC1CCS(=O)(=O)C1 (stereo not drawn)	-23%	/	-13%	?	/	5%	/	-1%
COc1ccccc1NC(=O)c1ccccc1C(=O)Nc1ccccc1OC	9%	-27%	0%	4%	/	2%	/	-9%
Nc1nc(CSCc2ccccc2)nc(N2CCOCC2)n1	-28%	22%	17%	?	4.9%	-2%	-10%	4%
CCO[C@H]1OC(C(=O)O)=C[C@@H](c2ccc3c(c2)OCO3)[C@@H]1CCCO	4%	/	-6%	/	/	0%	/	0%
CCOc1ccc(NC(=O)c2ccc(NC(=O)C3CCCO3)cc2)cc1 (stereo not drawn)	3%	/	-25%	24%[46.1 µM]	/	9%	/	1%
COC(=O)Cc1c(C)c2cc3c(c(C)c2oc1=O)OCN(CCc1ccc(F)cc1)C3	/	6%[46.1 µM]	8%	?	-6.0%	/	19%	/
O=C(NCCN1CCN(c2ccccc2)CC1)c1cccn2c(=O)c3ccccc3nc12	-17%	3%	?	0%	-11%	-36%	26%	17%
CC1(C)Cc2c(c(N3CCOCC3)nc3sc4c(NCC5CCCO5)nnnc4c23)CS1 (stereo not drawn)	6%	?	-30%	2%[46.1 µM]	/	7%	/	0%

Ordered by SMILES length (low to high): some entries from above.
SMILES	RE007 growth inh	Lassa entry inh	StopGo reporter	Marburg entry inh	Cruzain Triton	NS1 function inh	Cruzain inh noDet	SARS PLpro yeast
Cc1ccc(NC(=O)CSCC(=O)N2CCOCC2)cc1	-11%	1%	-17%	7%	0.8%	13%	-8%	3%
CCC(C)Nc1c2c(nc3c(-c4ccccc4)c(C)nn13)CCC2 (stereo not drawn)	-7%	-15%	?	-16%	-7.4%	-16%	-20%	-5%
COc1ccc(OC)c2c1sc(=NC(=O)c1cccc(N3C(=O)CCC3=O)c1)n2C	4%	/	-2%	6%	-5.0%	17%	?	-1%
COC(=O)Cc1c(C)c2cc3c(c(C)c2oc1=O)OCN(CCc1ccc(F)cc1)C3	/	6%[46.1 µM]	8%	?	-6.0%	/	19%	/
CCO[C@H]1OC(C(=O)O)=C[C@@H](c2ccc3c(c2)OCO3)[C@@H]1CCCO	4%	/	-6%	/	/	0%	/	0%
